Bioassay records from PubChem.
HPGD inh: blocks human HPGD enzyme activity; actives 4.3% (n = 150,000); AID 894; purified HPGD, NADH fluorescence kinetic, PGE2 substrate; Potency, µM, for inactives: top-dose activity change, negative = inhibition, actives largely listed as inhibitors; active = well fitted inhibition curve with a large enough effect (not every such curve was filed as active); inconclusive = small, poorly fitted or top-dose-only effect, or another doubt; inactive = no such curve, though single readings can be large or run the other way;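 further: top concentration of the series not given in the record; plate controls included wells without enzyme; inactives centre near -10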
Target sequence (P15428 whole entry, looked up): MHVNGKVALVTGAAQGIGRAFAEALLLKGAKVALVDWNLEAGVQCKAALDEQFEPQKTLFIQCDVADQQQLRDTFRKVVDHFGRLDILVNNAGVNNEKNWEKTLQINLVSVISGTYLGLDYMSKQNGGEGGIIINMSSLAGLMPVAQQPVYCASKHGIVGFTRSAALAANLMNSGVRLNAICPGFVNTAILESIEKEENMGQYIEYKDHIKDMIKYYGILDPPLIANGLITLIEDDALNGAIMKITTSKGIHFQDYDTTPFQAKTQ
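20 nM HPGD preincubated 15 min at room temperature with compound in 50 mM Tris-HCl pH 8, 0.01% Tween 20. Started with 1 mM NAD+ and 30 uM prostaglandin E2; NADH fluorescence (360/450 nm) read 5 times over 30-s intervals, last minus first.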
Starred values were filed as active, the others as inactive; ? = inconclusive. On the % scale 0 is the no-effect control and ±100 the full control effect; potency means the concentration at half of the fitted maximal effect. Not all compounds are listed, so the mix of outcomes need not match the whole.

SMILES	HPGD inh
CCCCNC(=O)C1=C(N)C(C(=O)Nc2ccc(C)c(S(=O)(=O)N3CCCCC3)c2)SC1=Nc1ccc(C)cc1C (stereo unspecified)	-10%
CCn1c(=O)cc(OCC(=O)NCCCN2CCN(c3cccc(Cl)c3)CC2)c2ccccc21	-7%
CCOC(=O)C1CCCN(CC(O)COc2ccc(OC)cc2C(C)(C)C)C1 (stereo unspecified)	2%
CC(=O)NC1=NN(C(C)=O)C(c2cccc([N+](=O)[O-])c2)S1 (stereo unspecified)	-17%
FC(F)(F)c1ccccc1/C=N/N1CCN(Cc2ccccc2)CC1	-2%
O=C1c2ccccc2C(=O)N1CCC(c1ccccc1)c1ccco1 (stereo unspecified)	-9%
NC(=O)C1CCN(C(=O)c2ccc(CS(=O)(=O)c3c(Cl)cccc3Cl)o2)CC1	-1%
COC(=O)C1(C(F)(F)F)N=C(N(C)C)OC(N(C)C)=N1	-3%
Cc1nnc2n(c1=O)N=C(c1ccc(Cl)cc1)CS2	-12%
COc1ccc(-c2cnnn2-c2ccc(NC(=O)c3ccc(S(=O)(=O)N4CCCCC4)cc3)cc2)cc1OC	?
COc1ccc(C(=O)COC(=O)c2ccco2)cc1	-3%
O=C(O)C1CCCN(S(=O)(=O)c2cccs2)C1 (stereo unspecified)	-14%
COc1ccc(CCN2C(=O)C3CC(C)=C(C)CC3C2=O)cc1OC (stereo unspecified)	-15%
COc1ccc(S(=O)(=O)NCC(c2cccnc2)N2CCN(c3ccccc3)CC2)cc1C (stereo unspecified)	-16%
O=C(NC1(C(F)(F)F)N=C2SCCN2C1=O)C1CCCCC1 (stereo unspecified)	-1%
CCOc1ccc(NC2c3ccccc3C(=O)N2c2ccc(Cl)cn2)cc1 (stereo unspecified)	-12%
C#CCn1c(=NC(=O)c2cccs2)sc2cccc(OCC)c21	?
CCC(=O)Nc1cnc(NC(=O)c2cccc(F)c2)cc1C	-14%
CCOc1ccc(N2C(=O)CC(N3CCC(O)(c4ccc(Br)cc4)CC3)C2=O)cc1 (stereo unspecified)	-11%
Cc1cccc(NC(=O)c2cccc3c2C(=O)c2ccccc2-3)c1	-8%
Cc1cccc(C)c1Nc1oc(-c2ccccc2)nc1-c1cccc2ccccc12	-17%
CCOc1cccc(-c2nn3c(-c4cc(C)[nH]n4)nnc3s2)c1	-22%
FC(F)(F)c1ccccc1CN1CCN(C2CCCCCC2)CC1	0%
COc1ccccc1NC(=O)Cn1nnc(-c2ccccc2NC(=O)c2ccco2)n1	?
Cc1c(NC(=O)c2ccc(COc3ccc4ccccc4c3)o2)c(=O)n(-c2ccccc2)n1C	35µM*

More results.
SMILES	HPGD inh
Cc1[nH]nc2c1C1(CCOC1C)C(C#N)=C(N)O2 (stereo unspecified)	3%
COC[C@H]1O[C@@H](c2c(OC)cc(OC)cc2OC)[C@H](OC)[C@@H](OC)[C@@H]1OC	-10%
COc1ccc(N(C(=O)C(C)C)S(=O)(=O)c2cccc3cccnc23)cc1	1%
Cc1cc(C)cc(NC(=O)CN2CCc3ccccc3C2)c1	3%
CCCCCCCCCCCCCCC[C@@H](O)[C@H](CO)NC(=O)CCCCCCC	-4%
CC(C)c1nnc(NC(=O)CCC(=O)NCc2ccc3c(c2)OCO3)s1	-2%
O=C(O)CCC(=O)N1CCN(c2ccccn2)CC1	?
CC1=CN2C(=N)/C(=C\c3cn(CCCOc4ccccc4)c4ccccc34)C(=O)N=C2S1	-16%
Cc1ccc(S(=O)(=O)N(CCO)c2cc3c(s2)CCCC3)cc1	-15%
CC(=O)C1=C(O)CCC1=N	-4%
O=C(NC1=NCCS1)c1cccs1	-14%
COc1ccc(CCNC(=O)c2ccc(-c3ccc([N+](=O)[O-])cc3Cl)o2)cc1OC	-9%
O=C(CN1CCC(NC(=O)c2ccccc2)CC1)NCc1ccccc1F	-2%
COC(=O)Cn1c2ccc(F)cc2c2nc(C)sc21	-7%
O=C(CS(=O)(=O)c1ccccc1)Nc1ccc(Br)cn1	-7%
COc1ccc2c(c1)[nH]c1c(=O)n(/N=C/c3ccc(OC)c(COc4ccccn4)c3)cnc12	-16%
CC(=O)N(c1ccccc1)c1ccc([N+](=O)[O-])cc1[N+](=O)[O-]	-10%
COc1cc(CNCc2ccco2)ccc1OCc1ccccc1	-5%
COc1cccc(N2CCN(CC(=O)C34CC5CC(CC(C5)C3)C4)CC2)c1	-8%
CC(C)N(C(=O)CSc1nc2ccccc2n1Cc1ccccc1F)C(C)C	-1%
CC(OC(=O)c1nsc(Cl)c1Cl)C(=O)NCc1ccc2c(c1)OCO2 (stereo unspecified)	?
Cc1ccc(C(=O)N2CCc3ccccc32)cc1	?
Cc1cccc(NC(=O)NC(C)CCc2ccccc2)c1 (stereo unspecified)	-4%
Cc1ccc(C)n1C(Cc1ccccc1)C(=O)O (stereo unspecified)	-23%
Cc1cc(C(=O)N/N=C/c2cccc([N+](=O)[O-])c2)c2ccccc2n1	-10%

Carrying on:
SMILES	HPGD inh
Cc1ccc(-c2cc(C(=O)NCc3ccccn3)no2)cc1	-15%
COc1cc(/C=C(\C#N)C(=O)c2ccc(O)c(O)c2)cc(I)c1O	18µM*
CC(=O)NC(Cc1ccccc1)C(=O)N1CCN(C(=O)c2ccco2)CC1 (stereo unspecified)	-13%
CC1=C(C(=O)Nc2ccccc2)C(c2ccc(N(C)C)cc2)NC(=O)N1 (stereo unspecified)	-1%
Cc1ccc(OCc2nnc(SC3CCc4ccccc4C3=O)n2C)cc1 (stereo unspecified)	?
CCOC(=O)C(C)(C)C(=O)C(C)(C)C(O)c1ccccn1 (stereo unspecified)	-6%
Clc1ccc(-n2ncc3c(NCc4ccccn4)ncnc32)cc1	?
Cc1cccc(Nc2ccc([N+](=O)[O-])cc2C(=O)O)c1	-15%
Cc1[nH]c(C)c(Cl)c(=O)c1Cl	2%
CN(C)c1ccc(/C=[N+](\[O-])C2SC(=S)N(C)C2(C)C)cc1 (stereo unspecified)	-25%
CCN(CC)S(=O)(=O)c1ccc2oc(SCC3CN=C(c4ccc(OC)cc4)S3)nc2c1 (stereo unspecified)	14µM*
CCCCOc1ccc(C(CC(=O)NC)C(=O)O)cc1 (stereo unspecified)	-2%
Cc1noc(C)c1C(=O)N1CCC2(CCCN(Cc3nccs3)C2)CC1	-6%
O=C(CSc1ccc2nnc(-c3ccccn3)n2n1)N1CCOCC1	?
NC(=O)Cc1nc(-c2ccc(Br)cc2)cs1	-11%
COCCNC(=O)COc1ccccc1C	-19%
O=C1OCCC1Sc1ncnc2sccc12 (stereo unspecified)	-13%
CN(CC(=O)N1CCCCC1)S(=O)(=O)c1cccc2cccnc12	16µM*
O=C(Cn1c(-c2cscn2)nc2ccccc21)Nc1ccccc1F	-20%
CCSc1nnc(NC(=O)C(NC(=O)c2ccc(Cl)cc2)C(C)C)s1 (stereo unspecified)	-4%
CC(=O)NC1=NN(C(C)=O)C(c2sccc2C)S1 (stereo unspecified)	-8%
O=C(CN1CCN(S(=O)(=O)c2ccccc2)CC1)Nc1ccc2c(c1)OCO2	-4%
O=C(O)c1cc2c(s1)-c1ccccc1CC2	?
N=C1N(/N=C/c2ccccc2)C(=Nc2ccccc2)C(=S)N1c1ccccc1	-21%
O=c1c2cc(Br)ccc2[nH]c(=S)n1Cc1ccccn1	-15%

Quoted at random: two entries already listed
SMILES	HPGD inh
O=C(O)c1cc2c(s1)-c1ccccc1CC2	?
NC(=O)Cc1nc(-c2ccc(Br)cc2)cs1	-11%

More results:
SMILES	HPGD inh
COc1ccccc1NC(=O)COC(=O)C1CCN(/C=C/C(=O)C(F)(F)F)CC1	-10%
CCSc1cc(N2CCCC2)nc(-c2ccc(C)cc2)n1	-23%
Cn1c(=O)c2c(nc(Cc3ccccc3)n2CC(=O)O)n(C)c1=O	-5%
Cc1ccc(-c2csc(NC(=O)c3ccc(S(=O)(=O)N4CCc5ccccc54)cc3)n2)cc1	-20%
COc1ccc(-n2c(COc3ccc(Cl)cc3)nnc2SCc2ccc(C#N)cc2)cc1	-4%
CS(=O)(=O)N(CC(=O)Nc1cccc(Cl)c1Cl)c1ccccc1	-13%
Cc1cccc(-n2c(N)cc(=O)nc2SCC(=O)Nc2ccccc2)c1	-12%
Cc1c(N2C(=O)SC(CC(=O)O)C2=O)c(=O)n(-c2ccccc2)n1C (stereo unspecified)	-6%
COc1ccc(CCNc2nc(-c3cccnc3)cs2)cc1OC	-11%
O=C(NCCN1CCCCCC1)C1CCC(CNS(=O)(=O)c2cccc3cccnc23)CC1 (stereo unspecified)	-15%
O=C(NCc1ccccc1)C(c1ccc(F)cc1)N(Cc1ccco1)C(=O)c1ccccn1 (stereo unspecified)	-16%
CC(C)NC(=O)COc1ccc(Cl)cc1Cl	-23%
Cc1ccc(OCCSc2cc(C)nc(N)n2)cc1	-18%
CCN(CC)S(=O)(=O)c1ccc(Cl)c(C(=O)Nc2cc(C)nn2-c2ccccc2C(F)(F)F)c1	-3%
O=C(COC(=O)C1CCN(S(=O)(=O)c2cccs2)CC1)c1ccc2c(c1)OCCO2	-1%
Clc1cccc(Cl)c1Cn1cc(Br)cn1	-6%
S=c1[nH]nc(COc2ccccc2)n1/N=C/c1ccc(Br)s1	10µM*
O=C(NC[C@@H]1CCCCN1)c1cc(OCC(F)(F)F)ccc1OCC(F)(F)F	-5%
O=C(c1cnn(-c2nc3ccccc3s2)c1)c1ccccc1O	?
COc1ccccc1N1CCN(C(=O)CSc2nnc(-c3ccoc3C)o2)CC1	-6%
CCOC(=O)C(C)S(=O)(=O)c1ccc(C(F)(F)F)cn1 (stereo unspecified)	-6%
COC(=O)Nc1ccc(S(=O)(=O)N2CCN(C)CC2)cc1	-9%
O=C(COC(=O)C1(c2ccc(F)cc2)CCCC1)N1CCc2ccccc21	0%
Cc1cc(Br)ccc1OCCCCNC(C)(C)C	3%
CCCSc1nc(N)c2c3c(sc2n1)CN(C)CC3	-28%

As entered above.
For HPGD inh, Cc1c(N2C(=O)SC(CC(=O)O)C2=O)c(=O)n(-c2ccccc2)n1C (stereo unspecified) has the entry -6%
For HPGD inh, O=C(NCCN1CCCCCC1)C1CCC(CNS(=O)(=O)c2cccc3cccnc23)CC1 (stereo unspecified) has the entry -15%

The list continues.
SMILES	HPGD inh
Cc1cccc2c(=O)c(C(=O)N3CCCCCC3)c[nH]c12	?
O=C(O)CS(=O)c1ccc2c3c(cccc13)C(=O)c1ccccc1-2 (stereo unspecified)	-7%
CNC(=O)NC(=O)C(C)OC(=O)c1oc2ccccc2c1CSc1ccc(Cl)cc1 (stereo unspecified)	-16%
Cc1cccc(NC(=O)CS(=O)(=O)c2cn(C)c3ccccc23)c1C	-11%
O=C1c2ccccc2OCOc2ccccc21	-16%
C=CC[N+](C)(C)CC(=O)OCc1ccccc1	-7%
O=C(CC(NC(=O)c1ccccc1)c1ccccc1)Nc1cccc2ccccc12 (stereo unspecified)	-5%
COc1cc2c(cc1NC(=O)c1ccco1)CCCC2	-8%
COc1ccccc1-n1c(=O)[nH]c2c(C(N)=O)nc(CC(C)C)nc21	?
Cc1[nH]c2ccccc2c1/C=N/n1cnnc1	-13%
Cc1ccc(C(=O)Nc2cccc(Oc3ccccc3)c2)o1	20µM*
Cc1cccc(NC(=O)c2ccc(OC3CSC3)cc2)c1	-11%
O=C(COc1ccc2ccccc2c1)Nc1ccc(S(=O)(=O)N2CCCCCC2)cc1	-8%
Cc1ccccc1S(=O)(=O)NCc1cccnc1	1%
Cc1sc2nc(N)sc2c1C	-5%
O=C(NC1CCS(=O)(=O)C1)c1ccccc1C(=O)c1ccccc1 (stereo unspecified)	2%
COC(=O)CN(CCc1ccccc1)S(=O)(=O)c1ccc(OC)c(OC)c1	-9%
N#Cc1ccc(Oc2nc(C#N)cc(-c3ccccc3)n2)cc1	-17%
O=C(NCc1ccc2c(c1)OCO2)C1CCN(S(=O)(=O)c2cccc3nsnc23)CC1	2%
O=C1OCC(CO)(CO)N=C1NNc1ccccc1Cl	-18%
COC(=O)c1ccc(NC(=S)Nc2ccc3ccccc3c2)cc1	-9%
O=S(=O)(c1ccc(C2=CSC3=NCCN23)cc1)N1CCOCC1	?
COCCN1C(=O)C(O)=C(C(C)=O)C1c1ccc(OC)c(OC)c1 (stereo unspecified)	-20%
CCOC(=O)C(=O)Nc1nnc(SCc2ccc(F)cc2)s1	-21%
CON(c1nc(N(C)C)nc(N(C)C)n1)S(=O)(=O)c1ccccc1Cl	-17%
Cc1cc(C)cc(OCC(=O)Nc2ccc(N3CCCC3)cc2)c1	-16%
O=C(c1ccncc1)N1CCC2(CC1)CN(c1ncccn1)C2	?

HPGD inh, entries above that show a hit
SMILES	HPGD inh
Cc1c(NC(=O)c2ccc(COc3ccc4ccccc4c3)o2)c(=O)n(-c2ccccc2)n1C	35µM*
COc1cc(/C=C(\C#N)C(=O)c2ccc(O)c(O)c2)cc(I)c1O	18µM*
CCN(CC)S(=O)(=O)c1ccc2oc(SCC3CN=C(c4ccc(OC)cc4)S3)nc2c1 (stereo unspecified)	14µM*
CN(CC(=O)N1CCCCC1)S(=O)(=O)c1cccc2cccnc12	16µM*
S=c1[nH]nc(COc2ccccc2)n1/N=C/c1ccc(Br)s1	10µM*
Cc1ccc(C(=O)Nc2cccc(Oc3ccccc3)c2)o1	20µM*

Some of these compounds in order of their number in HPGD inh, descending:
SMILES	HPGD inh
Cc1c(NC(=O)c2ccc(COc3ccc4ccccc4c3)o2)c(=O)n(-c2ccccc2)n1C	35µM*
COc1cc(/C=C(\C#N)C(=O)c2ccc(O)c(O)c2)cc(I)c1O	18µM*
S=c1[nH]nc(COc2ccccc2)n1/N=C/c1ccc(Br)s1	10µM*
